High-throughput results from PubChem.
MT1-MMP act inh: blocks activation of human MT1-MMP. P50281. HT1080 RFP-PRO-GFP cells, GFP/RFP ratio fluorescence, overnight; percent of plate control window, DMSO zero. GFP/RFP ratio change, % at 20 µM. hit rate 0.061% among 360,000. AID 651647;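 active means GFP/RFP ratio change of at least 30% with cell ATP level not reduced by more than half and red fluorescence within 50% of control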; further: strong numbers were not always called active
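Assay system: RFP-PRO-GFP reporter HT1080 cells; read-out basis: GFP/RFP fluorescence ratio; benchmarks: DMSO wells and RFP-L50D-GFP cells; doses: 20 µM single dose, 1% DMSO; schedule: overnight cell settling, then overnight compound exposure, 37 °C, 5% CO2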
CSC inhib: blocks cancer stem cells | cancer stem cell-like cells viability, luminescence | inhibition, % at 7.5 µM | hit rate 1.1% among 300,000 | AID 2717;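 active means mean at 75% or more and at least half the replicates too; inconclusive means mean and replicates disagree; tested in HMLE shEcad cells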;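 further: 0% = median of negative and 100% = median of positive control wells; the first replicate is given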
eIF4H inh: inhibitors of RNA binding by human eIF4H | eIF4H fluorescence polarization binding assay | AID 2012 | hit rate 0.94% among 290,000 | inhibition, % at 35 µM;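 active means 50% or more with normal probe brightness, or confirmed in later tests; inconclusive means above 50% with abnormal brightness, or retests that disagree; inactive means below 50% or failed in later tests; about a fifth of its hits are not listed in these tables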;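 further: calls also rest on retests at 20 µM and on dose response follow-up; 0% = protein and probe with vehicle and 100% = probe without protein; strong numbers were not always called active; many hits fall short of the cut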
Yeast UUG start: alters start codon recognition fidelity in yeast | hit rate 0.13% among 350,000 | S. cerevisiae UUG-firefly luciferase reporter, luminescence/redox ratio | activity score, % at 18.7 µM | AID 602363;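 active means replicate mean at a twofold rise or more, about +100% in these data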;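 further: firefly luciferase made from a UUG start codon reports start codon fidelity; reporter light over untreated wells divided by growth signal over untreated wells; some hits fall short of that in this replicate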
PABP polyA inh: PABP-poly(A) binding inhibition; hit rate 1% among 290,000; inhibition, % at 35 µM; AID 2014; PABP-poly(A) RNA binding, fluorescence polarization; P11940;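 active means 50% or more with normal probe brightness, or confirmed in later tests; inconclusive means above 50% with abnormal brightness, or retests that disagree; inactive means below 50% or failed in later tests; about a fifth of its hits are not listed in these tables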;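 further: calls also rest on retests at 20 µM and on dose response follow-up; controls were probe without protein and protein plus probe with vehicle; some compounds called inactive have numbers as strong as hits; many hits fall short of the cut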
Rce1 inhib: yeast Ras-converting enzyme inhibition. calls only. yeast membranes, quenched prenylated peptide cleavage fluorescence. AID 2563. Q03530. hit rate 0.27% among 290,000;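 active means fall in fluorescence gain of 50% or more versus controls, with final raw signal at or below 3038400; inconclusive means same 50% fall but final raw signal above 3038400; inactive means fall in fluorescence gain under 50%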;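 further: plate controls were neutral control wells for no effect and wells lacking membranes for full effect; tested at 10 µM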
Target sequence (Q03530 whole entry, looked up): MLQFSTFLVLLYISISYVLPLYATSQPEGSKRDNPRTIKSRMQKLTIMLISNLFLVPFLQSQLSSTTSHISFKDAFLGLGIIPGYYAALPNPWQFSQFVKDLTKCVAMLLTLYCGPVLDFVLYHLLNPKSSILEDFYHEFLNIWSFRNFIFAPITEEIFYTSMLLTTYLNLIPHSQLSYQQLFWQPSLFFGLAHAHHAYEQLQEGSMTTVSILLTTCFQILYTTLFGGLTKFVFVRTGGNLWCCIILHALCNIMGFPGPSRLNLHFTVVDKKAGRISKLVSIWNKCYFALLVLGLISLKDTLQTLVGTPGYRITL
HIV Env fusion: blocks HIV Env-driven cell-cell fusion; HeLa-JRFL Env/CEM21 cell fusion, luciferase; hit rate 1.1% among 360,000; AID 651610; inhibition, % at 12.3 µM;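 active means mean replicate inhibition score of at least 50 and every replicate individually at or above 50; inconclusive means only one of the two criteria met; inactive means mean below 50 and not all replicates reaching 50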;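 further: 0% = plate neutral controls and 100% = maraviroc near 300 nM; one replicate is shown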
eIF4H inh retest: second read-out of eIF4H inh, no call of its own (marks repeat the call); inhibition, %; compound at 20 µM; confirmation average;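 mean of two retest wells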
PABP polyA inh retest: further read-out of PABP polyA inh, marked with its call; inhibition, %; compound at 20 µM; confirmation repeats;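 mean of two retest wells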
MT1-MMP act inh RFP: further read-out of MT1-MMP act inh, marked with its call; RFP signal change, %; measured here: RFP expression control read;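 0 = vehicle wells; hits needed this value within 50% of zero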
* marks the source's active call; other numbers are inactive results; i = inactive; ? = inconclusive; . = not tested or not shown; + = active, no number; & = joins results of further samples. These rows are one share of the data; the hit share may differ from the screen's.

SMILES	MT1-MMP act inh	MT1-MMP act inh RFP	CSC inhib	eIF4H inh	Yeast UUG start	PABP polyA inh	Rce1 inhib	HIV Env fusion	others
OCCN(CCO)c1ccc(C(c2ccccc2Cl)c2ccc(N(CCO)CCO)cc2Cl)c(Cl)c1	5	0	2	4	-16	-5	i	.
C[C@@H]1CCCCO[C@@H](CN(C)C(=O)Cc2ccccc2)[C@@H](C)CN([C@H](C)CO)C(=O)c2cc(NC(=O)C3CCCCC3)ccc2O1	-1	-2	.	.	2&0	.	.	-4
CN1c2ccccc2Oc2nnc(N3CCN(Cc4ccccc4)CC3)cc21	3	-3	2	-7	4	2	i	-36
CS(=O)(=O)N(Cc1ccccc1Cl)c1ccc(C(=O)N2CCCC2)cc1	-1	-1	-12	-8	-15	9	i	-8
O=C(c1ccc(Cl)cc1)N1CCOc2ccccc21	.	.	-4	-11	-1	10	i	-1
Cc1ccc(-c2noc(CCC(=O)Nc3cccc(C#N)c3)n2)cc1	7	-2	-1	-8	0	-4	i	.
COC(=O)C1=C(COc2ccccc2)NC(=O)NC1c1ccc2ccccc2c1 (configuration not stated)	.	.	-1	.	.	.	i	0
Cc1ccc(-c2csc(NC(=O)CCNC(=O)c3ccc(Cl)cc3)n2)cc1	-2	0	.	-2	.	-4	i	10
COCCn1c(=NC(=O)c2sc3ccccc3c2Cl)sc2cc(S(N)(=O)=O)ccc21	0	-3	6	1	-12	-7	i	8
O=C(NN=C1CCC(c2ccccc2)CC1)c1ccccc1-n1cccc1 (configuration not stated)	2	4	14	-12	-8	-4	i	-13
COc1cc2c(cc1OC)CN(Cc1ccc(F)cc1)CC2	0	-4	-9	23	7	7	i	17
O=C1Nc2ccccc2N(O)N1c1ccc(S(=O)(=O)Nc2ccccn2)cc1	0	8	-2	2	-9	82	i	6	eIF4H inh retest=-8;PABP polyA inh retest=4
Cc1cc2cc(CNC(=O)C3CCCC3)ccc2n1C	35*	35*	1	45	8	40	i	19
CCCOCC1CC(CCc2nc(=S)[nH][nH]2)C(=O)O1 (configuration not stated)	0	5	11	-7	-22	-7	i	.
Cc1onc(-c2ccccc2)c1C(=O)NCC1COc2ccccc2O1 (configuration not stated)	-2	-1	-4	-5	-17	-12	i	.
COc1cccc(COC(=O)c2cc(=O)[nH]c3ccc(S(=O)(=O)N4CCOCC4)cc23)c1OC	-1	-3	.	.	4	.	i	4
C[C@@H]1CN([C@@H](C)CO)C(=O)CCCn2nncc2CO[C@@H]1CN(C)S(=O)(=O)c1cn(C)cn1	1	6	.	.	-4&-3	.	.	10
CCOC(=O)C1(Cc2ccccc2C)CCCN(C(=O)c2ccccn2)C1 (configuration not stated)	0	0	6	-6	-12	0	i	-15
COc1ccccc1CC(=O)Nc1sc2c(c1C(N)=O)CCCC2	4	3	-2	2	-7	6	i	4
COc1ccccc1N1CCN(c2ncc(C(=O)N3CCN(c4cccc(Cl)c4)CC3)c3ccccc23)CC1	-11	-28	20	2	.	38	+	40
COc1ccc(CCn2c(O)cc3nn(-c4nc5ccccc5s4)c(=O)c-3c2C)cc1	-3	8	-1	68*	.	64*	i	-4
Cc1cccc(NC(=S)N2CCN(C(=O)C3CCCO3)CC2)c1 (configuration not stated)	0	3	-10	-5	.	-9	i	2
Cc1ccc(/C=C2\SC(=S)N(/N=C/c3cc([N+](=O)[O-])ccc3O)C2=O)o1	1	4	0	96	.	-9	i	.	eIF4H inh retest=-7;PABP polyA inh retest=11
Cc1ccc(NC(=O)CSc2nnc(NC(=O)C3CC3)s2)cc1	-2	1	-12	5	-9	0	i	-5
CC(C)CC(=O)N1CCN(Cc2cccc(F)c2)CC1	4	3	-11	-3	.	4	i	.
CCCOc1ccc(Cc2c(COCC)[nH]c(=S)[nH]c2=O)cc1	3	3	.	5	2	7	.	13
Clc1ccc(CSc2nnc(Cn3cnc4ccccc43)o2)cc1	0	-14	8	6	-12	15	i	87*
CCCn1c(=O)c(-c2ccccc2)c(O)c2ccccc21	-1	2	-8	-2	.	10	i	?
CCCCCSc1nnc(C)c(=O)[nH]1	2	4	3	1	.	0	i	.
COc1cccc(NC(=O)CCC(=O)NCc2ccco2)c1	1	5	-10	-11	-2	3	i	-3
CC(=O)c1ccc(N2CCN(Cc3nc(Cc4ccccc4)no3)CC2)cc1	-3	-4	-11	1	.	-2	i	6
CC(C)(C)OC(=O)C[C@H]1C/C=C\C[C@H](CC(=O)NCCO)C(=O)N[C@@H](Cc2ccccc2)COC1=O	-9	-3	.	.	-19	.	.	3
Cc1ccc(NC(=O)c2ccc(C(C)(C)C)cc2)cc1[N+](=O)[O-]	2	-7	33	2	-7	-9	i	-68
O=C(NCCCCc1ccccc1)Nc1ccc(F)cc1F	0	-5	-7	0	-14	-12	i	-5
Cc1noc(C)c1S(=O)(=O)N1CCC(C(=O)N2CCC(C)CC2)CC1	4	0	5	-2	20	-6	i	.
COc1ccccc1-c1cc(NC(C)=O)c2ncc(-c3ccccc3)n2c1	-4	-3	.	.	-13	.	.	-30
CCN(CC)S(=O)(=O)c1cc(C(=O)OC)ccc1Cl	0	1	-18	-15	37	-9	i	-40
CCCCNC(=O)O[C@H]1C[C@@H]2CCN3C(=O)CCC(C)(C)[C@H](C1)[C@H]23	-2	-2	2	-10	-13	3	i	6
COc1ccc(Cc2nnc(NC(=O)c3cccc(F)c3)s2)cc1OC	3	0	-6	-16	1	1	i	8
O=C1C2=C(NC(=S)NC2c2ccc(Cl)cc2)NC(c2ccc(Cl)cc2)N1c1ccc(Cl)cc1 (configuration not stated)	3	2	101*	-7	-14	-6	i	-147
CCN(CC)c1ccc2cc(NC(=O)CCC(=O)O)c(=O)oc2c1	-24	5	.	?	.	?	.	51
COc1ccc(C2(CNC(=O)C(=O)Nc3ccc(C)cc3)CCOCC2)cc1	-1	-3	-1	5	.	7	i	-2
Cc1ccc(CN(C(=O)c2cc(=O)c3cc(C)cc(C)c3o2)C2CCS(=O)(=O)C2)cc1 (configuration not stated)	-4	-3	21	-10	2	2	i	-1
Cc1ccc(Cl)cc1NS(=O)(=O)c1cc2[nH]c(=O)c(=O)[nH]c2cc1C	3	4	-3	-15	-5	4	i	-22
CN(CC(=O)Nc1ccc(Cl)c(C(F)(F)F)c1)C(=O)CC1Sc2ccccc2NC1=O (configuration not stated)	2	-9	14	-5	3	-1	i	7
N#C/C(=C\c1cn(CCOc2ccccc2)c2ccccc12)C(=O)NCc1cccs1	-10	-2	16	-7	-8	-1	i	5
O=C1CC(NS(=O)(=O)c2cc(F)ccc2F)CN1c1ccc2c(c1)OCCO2 (configuration not stated)	-3	-1	.	.	.	.	i	-4
COc1ccc(OC)c(-c2csc(NC(=O)Cc3ccccc3OC)n2)c1	-6	-6	.	4	-8	1	i	2
CN(C)CCN(C(=O)/C=C/c1cccs1)c1nc2ccc(F)cc2s1	-5	-3	6	-10	.	1	i	7
COc1ccccc1NC(NC(=O)c1ccco1)C(=O)c1ccccc1 (configuration not stated)	6	-5	-10	-1	-26	-1	i	.
COc1ccccc1C(C)NC(=O)c1cc(=O)[nH]c2ccccc12 (configuration not stated)	2	2	-10	-10	-13	34	i	8
Cc1nn(C)cc1CN1CCCC(C(=O)c2ccc(-c3ccccc3)c(F)c2)C1 (configuration not stated)	4	0	26	-11	.	-8	i	9
Oc1c(/C=N/Nc2cccc3cccnc23)ccc2ccccc12	7	9	.	?	-8	-3	i	.
CCCn1c(=O)c(C(=O)NCCc2ccc(OC)cc2)c(O)c2ccccc21	1	3	61	-12	-10	2	i	7
FC(F)(F)c1ccc(Sc2nnc(-c3cccs3)n2CC2CCCO2)nc1 (configuration not stated)	0	-2	-10	-6	0	12	i	-3
Cc1ccnc(NS(=O)(=O)c2ccc(N3C(=O)C4CCCCC4C3=O)cc2)n1 (configuration not stated)	-2	4	6	-4	-17	7	i	4
CCCOc1ccc(C2=NNC(c3cccs3)=Nc3ccc(OC)cc32)cc1	-2	-1	14	2	-20	27	i	22
COC(=O)C1C(c2ccccc2)C(C(=O)N2CCOCC2)C1c1ccccc1 (configuration not stated)	4	5	-5	1	14	-3	.	-12
Cc1ccc(C(=O)Nc2cccc(C(F)(F)F)c2)cc1Nc1ncnc2nc[nH]c12	-9	-8	10	-8	-16	-2	i	?
CC1Sc2ccc(S(=O)(=O)N3CCC(C(=O)N4CCN(C)CC4)CC3)cc2NC1=O (configuration not stated)	-5	1	-8	7	5	3	i	-11
(further entries)
SMILES	MT1-MMP act inh	MT1-MMP act inh RFP	CSC inhib	eIF4H inh	Yeast UUG start	PABP polyA inh	Rce1 inhib	HIV Env fusion	others
CCC(C)NC(=O)CN(c1cc(C)ccc1OC)S(C)(=O)=O (configuration not stated)	4	3	-4	3	-38	-5	i	-32
c1ccc(-c2noc(C3CCC3)n2)nc1	2	5	-14	15	-9	3	i	-9
Cc1cccc2nc(-c3ccco3)c(Nc3ccccc3)n12	2	-7	5	?	-16	-5	i	4
CCN(CC(=O)Nc1ccccc1OC)C(=O)/C=C/c1cccs1	8	2	-14	.	-8	.	i	.
CCN1CCSc2ccc(C(=O)NCc3ccccc3C)cc21	-3	0	7	-7	-1	-3	i	-1
N#CC(C#N)=C/C(C#N)=C(/N)N1CCN(c2ccc(Cl)cc2)CC1	-3	-7	43	-11	.	-4	i	.
O=C(N/C(=C\c1ccccc1)C(=O)N1CCN(CCO)CC1)c1ccccc1	1	5	-28	0	-1	4	i	79*
CC(=O)c1c(C)[nH]c(C(=O)CN2C(=O)NC(C)(c3ccc(C)cc3)C2=O)c1C (configuration not stated)	.	.	-13	3	.	-3	i	12
C/C(=N/OCc1ccc(Br)cc1)c1ccccn1	0	0	12	12	.	-3	i	-131
Cc1ccc(CN2C(=O)C(C)(C)Oc3ccc(C(=O)N4CCCCC4)cc32)cc1	-7	-6	.	-6	10	1	i	9
O=C(NN1C(=O)/C(=C/c2ccc(O)cc2)SC1=S)c1cccc(O)c1	-79	24	4	?	-9	?	i	13
Cc1c(C=O)c2ccccn2c1C(=O)c1ccc(F)cc1	-7	-5	-6	-2	15	10	i	30
Cc1ccc(NC(=S)Nc2ccc(S(=O)(=O)Nc3ncccn3)cc2)c(C)c1	0	0	-1	-6	-24	15	i	-1
COc1ccc(NC(=O)CSc2nc(N)c(NC(=O)c3ccccc3F)c(=O)[nH]2)cc1	2	5	-8	-8	-14	-2	i	.
O=C(CSc1ccc2c(c1)OCCO2)Nc1ncccc1O	-1	-4	9	.	-19	.	.	-9
O=C(O)C(=Cc1cccc([N+](=O)[O-])c1)c1ccc(Cl)cc1	3	4	.	.	-6	.	.	-6
O=C(NNS(=O)(=O)c1ccc2ccccc2c1)c1cc(-c2ccccn2)nc2ccccc12	-1	4	8	0	.	9	i	11
COc1ccc(OCCOc2ccc(C)nc2[N+](=O)[O-])cc1	4	5	-3	-1	-13	0	i	.
O=C(Nc1cccc(C(=O)N2CCCC2)c1)C1CCC1	3	6	.	.	-12	.	.	17
O=C(O)c1cc(-c2cccs2)nn1-c1ccc(F)cc1	2	4	-6	0	.	-3	i	12
COc1cc(/C=C/c2cc(C(F)(F)F)[nH]c(=O)n2)cc(OC)c1OC	-6	-12	.	-8	.	2	.	-34
